ALR H2O2 inh: blocks human ALR sulfhydryl oxidase activity. P55789. purified ALR, DTT oxidation, H2O2 HRP-luminol luminescence. inhibition, % (test concentration not listed). 290,000 compounds, 3.8% hits. AID 485317;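 active means mean and each replicate at 75% or more; inconclusive means only one of the two met; inactive means neither met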;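 further: stock transfer was 7.5 nL into about 7.5 µL; 0% = neutral wells and 100% = wells with inactivated enzyme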
Target sequence (P55789 whole entry, looked up): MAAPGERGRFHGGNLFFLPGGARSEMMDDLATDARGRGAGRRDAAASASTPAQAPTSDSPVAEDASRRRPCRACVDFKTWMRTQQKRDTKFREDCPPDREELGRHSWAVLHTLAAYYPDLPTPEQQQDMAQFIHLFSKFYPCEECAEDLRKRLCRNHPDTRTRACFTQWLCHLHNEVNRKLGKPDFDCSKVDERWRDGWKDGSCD
Beta2AR agonist: human beta-2 adrenergic receptor agonism by FAP; P07550; Am2.2-beta2AR cells, FAP receptor internalization, flow cytometry; reference of the scale not given here; response, % (concentration not given with the values); 340,000 compounds, 0.43% hits;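 active means response above a set limit, near 3 SD of response in nonfluorescent compounds, cut at about 42% in these data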;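 further: stock transfer was 100 nL into about 11 µL; a reference agonist was the positive control; negative values mostly stem from fluorescent compounds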
Target sequence (P07550 whole entry, looked up): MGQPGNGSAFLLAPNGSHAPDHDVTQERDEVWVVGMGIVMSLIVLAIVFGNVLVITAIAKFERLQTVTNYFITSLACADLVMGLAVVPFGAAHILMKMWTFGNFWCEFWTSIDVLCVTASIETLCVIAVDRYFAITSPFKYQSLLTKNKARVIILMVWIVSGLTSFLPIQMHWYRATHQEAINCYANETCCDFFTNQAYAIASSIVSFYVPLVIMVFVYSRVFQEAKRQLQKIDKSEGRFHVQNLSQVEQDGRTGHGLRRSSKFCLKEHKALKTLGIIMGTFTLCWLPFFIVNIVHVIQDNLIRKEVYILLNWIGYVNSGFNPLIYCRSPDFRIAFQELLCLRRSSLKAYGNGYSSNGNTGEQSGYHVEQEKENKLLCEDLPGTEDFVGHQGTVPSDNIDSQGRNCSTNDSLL
LANA-H2A inh: blocks KSHV LANA binding to histone H2A/H2B; Q9QR71; cell-free LANA-H2A/H2B peptide, fluorescence polarization; inhibition, % (test concentration not listed); 320,000 compounds, 0.6% hits; AID 2629; in the data active means inhibition mostly above about 10%, no sharp cut-off; inactive means mostly below about 6.7%;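 further: stock transfer was 7.5 nL into about 10 µL; 0% = median of vehicle wells and 100% = median of positive control wells; one replicate is shown; the record names a cut of 25% in any replicate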
Calb FLC: C. albicans growth modulation with fluconazole | C. albicans CaCi-2 (fluconazole-resistant clinical isolate) + fluconazole, Alamar Blue growth, 48 h | AID 1979 | 300,000 compounds, 0.57% hits | growth inhibition, % (concentration not given with the values);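 active means most replicates above 75%; inconclusive means exactly half above 75%; inactive means most below 75%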;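 further: all wells also contain fluconazole at 8 µg/ml as a sub-toxic cotreatment; 0% = median of DMSO wells and 100% = median of geldanamycin control wells; wells of about 8 µL received 7.5 nL stock; the first replicate is given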
Vif TR-FRET: HIV-1 Vif–A3G interaction blockers – biochemical, TR-FRET, GST-Vif 1-94, biotin-A3G peptide, dose response retest, primary screen (AID 1117319); one-dose inhibition, %; IC50 in µM for titrated hits; TR-FRET GST-Vif / biotin-A3G peptide binding; higher % means a stronger effect; test concentration not given here; strong numbers were not always called active; 260,000 compounds, 0.57% hits;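 active means above the screen mean plus three standard deviations and confirmed in dose response; inconclusive means results disagree or hit not tested in dose response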;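 further: Vif residues 1-94 fused to GST binding biotinylated APOBEC3G peptide 110-148; 0% = full assay without inhibitor and 100% = GST in place of GST-Vif; retest series ran down from 100 µM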
HNF4A DNA FP: change in binding of human HNF4 alpha to DNA. HNF4a-FITC DNA binding, fluorescence polarization, 1 h. P41235. 360,000 compounds, 0.3% hits. activity change, % at 10 µM; in the data active means activity change above about 30%, passing the limit was not always enough;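 further: controls were the assay level and a saturating level of protein; the project sought stronger binding though the title names inhibitors; some compounds called inactive have numbers as strong as hits; positive values seem to mean higher polarization but the record does not say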
Target sequence (P41235 whole entry, looked up): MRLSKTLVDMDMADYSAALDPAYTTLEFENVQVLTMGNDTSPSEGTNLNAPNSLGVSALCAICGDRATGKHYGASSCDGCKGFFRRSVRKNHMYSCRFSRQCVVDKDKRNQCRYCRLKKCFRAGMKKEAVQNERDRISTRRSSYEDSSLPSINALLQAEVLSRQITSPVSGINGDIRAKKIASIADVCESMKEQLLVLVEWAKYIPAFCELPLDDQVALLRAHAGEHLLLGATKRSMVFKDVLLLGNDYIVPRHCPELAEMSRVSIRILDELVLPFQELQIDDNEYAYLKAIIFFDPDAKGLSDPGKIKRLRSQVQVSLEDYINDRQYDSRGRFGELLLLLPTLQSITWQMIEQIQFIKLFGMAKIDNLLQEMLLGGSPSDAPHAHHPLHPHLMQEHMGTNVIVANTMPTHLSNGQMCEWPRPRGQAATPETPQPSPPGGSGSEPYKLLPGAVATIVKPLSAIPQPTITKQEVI
RanGTP-Imp inh: inhibitors of RanGTP-importin-beta interaction, primary screen, biochemical, FRET, CFP-Ran, YFP-importin-beta, homogeneous; inhibition, % (concentration not given with the values); AID 2216; cell-free CFP-Ran/YFP-importin-beta FRET ratio; 300,000 compounds, 1.1% hits;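 active means most replicates above 15%; inconclusive means exactly half above 15%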;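 further: 0% = DMSO wells and 100% = Ran loaded with GDP instead of GTP; wells of about 40 µL received 100 nL stock; the first replicate is given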
* marks the source's active call; other numbers are inactive results; ? = inconclusive; · = not tested or not shown; & = joins results of further samples.

Each structure is followed by: Vif TR-FRET	Beta2AR agonist	HNF4A DNA FP	Calb FLC	ALR H2O2 inh	LANA-H2A inh	RanGTP-Imp inh
CCN(CC)S(=O)(=O)c1ccc2oc(Nc3ccc4c(c3)OCCO4)nc2c1
 : 1%	1	0.7	7	-2	-3.6	0.1
CCCCCCCCCCCCC(NC(C)=O)(C(=O)OCC)C(=O)OCC
 : 6%	3	1.3	5	0	-3.7	7.2
COc1ccc(S(=O)(=O)NCC2CCCN(C(=O)C=C(C)C)C2)cc1 (centres undefined)
 : 1%	3	-3.2	3	-2	-1.0	5.7
Cc1nnc(NC(=O)CSc2ccc3nnc(-c4cccnc4)n3n2)s1
 : 1%	·	·	9	-4	1.1	?
CCN(C(=O)COC(=O)c1cn(-c2ccccc2)nc1-c1ccccc1)C1CCS(=O)(=O)C1 (centres undefined)
 : 2%	-6	3.5	1	-5	-0.5	4.6
O=C(CCC1CCCCC1)Nc1cccnc1
 : 1%	-8	5.0	·	·	-5.8	2.1
CCCN(C(=O)COC(=O)c1[nH]c(C)c(C(=O)OC)c1C)c1c(N)n(Cc2ccccc2)c(=O)[nH]c1=O
 : 5%	8	4.5	-1	2	-2.7	-6.4
COc1ccccc1N1CCN(CC(C)N(C(=O)C2CCCCC2)c2ccccn2)CC1 (centres undefined)
 : 0%	-1	0.9	-5	32	-2.2	2.9
CC1Cc2ccccc2N1C(=O)CNc1ccccc1N1CCCCC1 (centres undefined)
 : -1%	4	8.7	-8	8	1.4	-2.5
Cc1cc(C)n(-c2ccc(C(F)(F)F)cc2[N+](=O)[O-])n1
 : -4%	4	2.7	2	-3	2.3	1.9
Cc1cccc(CN(C)CCc2ccccn2)c1
 : 19%	3	1.7	17	-3	4.9	4.6
CCCc1cc(NCCN(C)C)n2c(nc3ccccc32)c1C#N
 : 21%	-7	1.6	7	-39	4.0	5.0
CN(C)S(=O)(=O)c1cccc(C(=O)OCC(=O)NCc2ccc3c(c2)OCO3)c1
 : -5%	2	2.1	-14	3	8.9	1.6
CCOc1ncccc1C(=O)OCC(=O)N1CCN(S(=O)(=O)c2ccccc2)CC1
 : 20%	-1	7.2	5	-7	1.5	4.9
Cc1c(-c2nn(C)c(=O)c3ccccc23)oc2ccc(F)cc2c1=O
 : 0%	-1	1.7	0	-58	-9.2	-0.4
COc1ccc(C2C(C(=O)c3sc(C)nc3C)=C(O)C(=O)N2CCN2CCOCC2)cc1 (centres undefined)
 : 0%	7	-0.2	-3	·	·	-2.7
N#Cc1ccc(C(=O)Nc2cc(C3CC3)nn2-c2ccccc2)cc1
 : ·	-5	0.0	-16	-1	0.3	3.9
COc1cc(C(=O)NCc2ccccc2)cc(Br)c1OC
 : 0%	-7	3.9	7	-48	3.6	-0.4
CCOC(=O)c1ccc2c(c1)nc(SCC(=O)N1CCCCC1)n2CC
 : -3%	-10	1.4	-13	23	-4.0	-0.7
Cc1cc(C(F)F)n2ncc(C(=O)NCCc3ccc(Cl)cc3)c2n1
 : -4%	5	-1.2	-6	-8	-7.3	?
C=CC(C)n1c(Br)nc2c1c(=O)[nH]c(=O)n2C (centres undefined)
 : 12%	6	1.7	5	4	5.1	-2.7
CCSc1nsc(NC(=O)Nc2cccc(OC)c2)n1
 : ·	11	0.8	-6	3	-3.8	-0.1
COn1c(=O)c(-c2ccc(C)cc2)[n+]([O-])c2ccccc21
 : -5%	-4	0.7	5	-2	-2.2	0.4
Cc1ccc(C)c(CS(=O)(=O)c2cn(CC(=O)N3CCCCC3)c3ccccc23)c1
 : ·	-9	1.4	3	-6	-4.9	0.7
COc1c(NC(C)=O)c2ccccc2c2ccccc12
 : -8%	-4	2.9	11	-19	1.6	-0.5
CCCCn1c(N)c(N(CCOC)C(=O)c2ccc(S(=O)(=O)N3CCCCCC3)cc2)c(=O)[nH]c1=O
 : -6%	-9	-2.1	2	·	-0.8	0.7
O=C(CSC1=NS(=O)(=O)c2cc(F)ccc2N1)Nc1ccccc1
 : 8%	3	2.5	6	·	·	0.0
COc1ccc(NC(=O)c2ccccc2Oc2ccccc2)cc1
 : ·	-2	-3.6	3	0	-8.6	-1.2
C[C@@H](C(=O)Nc1ccc2ccccc2c1)[C@@H]1C[C@@]1(C)[C@@H](NC(=O)c1cccnc1)c1ccccc1
 : -2%	4	-2.6	-1	-4	1.7	-2.7
CN1CCN(/N=C/c2nc(-c3ccc(Cl)cc3)n3ccccc23)CC1
 : ·	2	4.3	-2	17	8.0	1.3
O=C(/C=C/c1ccc(Cl)cc1Cl)N1CCN(c2ccc([N+](=O)[O-])c(N3CCOCC3)c2)CC1
 : -5%	2	-0.7	1	·	·	-0.5
CCCCOC(=O)Nc1ccc(N(C)C)cc1
 : ·	-4	4.3	-3	99*	-2.2	2.2
COCCCNC(=O)Cn1c(=O)n(CCCCCC(=O)Nc2ccccc2)c(=O)c2sccc21
 : ·	2	8.4	0	-1	2.7	-0.3
O=C(Nc1cccc(C(F)(F)F)c1)C1CC(=O)N(CCc2ccccc2)C1 (centres undefined)
 : -11%	-2	-3.3	·	·	0.6	·
COc1ccc(-c2cc(C(=O)NCCN3CCOCC3)c3ccccc3n2)cc1OC
 : 2%	1	2.1	1	1	-1.2	2.2
CS(=O)(=O)N1CCN(Cc2ccccc2C(F)(F)F)CC1
 : -3%	0	1.1	-3	·	-3.9	6.3
CCCN1CCN(CC(=O)Nc2nncs2)CC1
 : 1%	0	-0.8	1	-5	4.2	-1.2
O=C(O)CSc1cc(NS(=O)(=O)c2cccc([N+](=O)[O-])c2)c2ccccc2c1O
 : ·	7	-4.1	20	·	·	0.5
CCOC(=O)C1CCN(C(=O)CCNS(=O)(=O)c2ccc(C)cc2)CC1
 : -5%	3	-0.4	·	·	1.8	·
O=C1c2oc3ccccc3c(=O)c2C(c2ccccn2)N1Cc1ccccc1 (centres undefined)
 : 0%	-15	2.0	1	21	-2.0	3.0
Cc1nc(SCc2ccc(F)cc2)n[nH]1
 : -10%	0	1.7	-5	-13	3.5	-2.1
Cc1ccc(OCC(=O)NNC(=O)C2CCCO2)c(C)c1 (centres undefined)
 : 2%	2	-2.7	10	-8	-2.7	1.0
O=C(CCCSc1nc2ccccc2c(=O)[nH]1)c1ccccc1
 : -15%	13	-2.0	37	3	-3.0	-5.7
CC(C)(C)C(=O)C[n+]1ccccc1
 : 14%	-9	2.1	0	·	-6.9	6.1
O=C(Nc1ccc(F)cc1)c1cccnc1N1CCOCC1
 : 17%	1	0.3	-8	2	1.3	?
O=C(Nc1ccccc1F)N1CCC(NC(=O)C23CC4CC(CC(C4)C2)C3)CC1
 : ·	-9	0.4	-8	30	-8.5	5.3
NC(=O)c1ccc(Cn2c(C(=O)c3ccc(Cl)cc3)c3ccccc3[n+]2[O-])cc1
 : ·	-7	-4.0	·	-62	6.7	·
Cc1cccc(N(C(=O)CCC(=O)Nc2cc(C)on2)C(C(=O)NC2CCCC2)c2ccc(C)o2)c1 (centres undefined)
 : ·	2	-0.4	35	-1	-4.0	-4.1
NC(N)=NC(N)=Nc1cccc2ccccc12
 : ·	4	1.1	-16	-31	14	2.6
COc1ccc(S(N)(=O)=O)cc1C(=O)NCCCN1CCN(c2ccccc2OC)CC1
 : 4%	-5	3.9	15	2	1.7	1.3
COC(=O)c1[nH]c2ccc(F)cc2c1NC(=O)CCN1CCN(C(=O)c2ccco2)CC1
 : -2%	·	·	-19	·	·	-2.4
CN(CC(=O)Nc1ccc(F)cc1)CC(=O)N1CCCC1
 : -1%	-3	-1.7	·	-1	-4.3	·
Cc1nn(C)c(C)c1NC(=O)Nc1cccc(C(F)(F)F)c1
 : -1%	1	0.5	26	-6	-1.6	-0.8
COc1ccc(CCn2c(=N)c(S(=O)(=O)c3ccc(Cl)cc3)cc3c(=O)n4ccccc4nc32)cc1
 : ·	-6	-88	2	0	-2.9	9.4
Cc1ccccc1NC(=O)CSc1ccsc1[N+](=O)[O-]
 : ?	-2	-36	-1	25	4.1	-2.2
Cc1cccc(NC(=O)CSc2nnc(-c3ccccc3)n2N)c1C
 : 29%	0	2.7	-1	-5	1.9	-0.1
COC(=O)CC1C(=O)NCCN1C(=O)c1sc2ccccc2c1Cl (centres undefined)
 : ·	2	-1.7	-11	-9	4.0	0.8
COc1ccc(OC)c(NC(=O)C2CCCN2C(=O)C2CCC(C)CC2)c1 (centres undefined)
 : 8%	0	0.7	-9	·	0.0	2.3
CC(C)Oc1ccc(CCc2n[nH]c(=S)n2-c2ccccc2)cc1
 : 20%	-6	3.8	0	6	5.3	?
O=C(COc1ccc(Br)cc1)NN1C(=O)c2ccccc2C1=O
 : ·	15	-0.4	14	15	-2.1	-0.1

Next results follow:
Each structure is followed by: Vif TR-FRET	Beta2AR agonist	HNF4A DNA FP	Calb FLC	ALR H2O2 inh	LANA-H2A inh	RanGTP-Imp inh
Cc1ccsc1/C=C1/NC(=O)N(Cc2ccc(F)cc2)C1=O
 : ·	-11	0.7	1	-1	-2.5	0.9
CN(C)c1ccc(C=Nc2ccccc2)cc1
 : -4%	1	-0.4	-2	-5	0.4	-0.7
CCCCCCC(=O)Nc1c2c(nc3ccccc13)N(C)CC2
 : 28%	-4	1.0	-4	-24	0.5	2.2
CC1(C)OC(=O)C(=CNc2ncccn2)C(=O)O1
 : 2%	-5	-5.9	4	-8	-0.7	-0.5
Cc1cc(C(=O)NP(=O)(N2CC(C)OC(C)C2)N2CC(C)OC(C)C2)c(C)n1C1CC1 (centres undefined)
 : ?	7	-0.2	2	1	1.0	-2.9
CC1=NN(c2ccc(Cl)c(C(=O)O)c2)C(=O)C1
 : 30%	1	-13	-5	-19	-1.2	5.7
CC1(C(=O)NC(=S)N(Cc2ccccc2)c2ccccn2)CC1(Cl)Cl (centres undefined)
 : -6%	4	0.7	-24	55	1.7	2.3
CCOC(=O)NN1C(=O)c2ccccc2NC1C (centres undefined)
 : -1%	-11	3.6	7	-2	1.8	-4.1
S=C(Nc1ccccc1)N1CCn2cccc2C1c1cccnc1 (centres undefined)
 : ·	-6	1.1	-1	11	4.4	4.5
O=C(CCn1c(=O)[nH]c2ccsc2c1=O)N1CCc2ccccc2C1
 : -2%	-28	3.7	5	·	-3.4	-4.2
Cc1nc2c(C)cccn2c1C(=O)c1ccccc1
 : -2%	-7	-3.4	-12	4	-4.7	?
CC(C)(C)c1ccc(C(=O)NNc2cc(N3CCCCC3)nc(N3CCCCC3)n2)cc1
 : -9%&-6%	13	-4.9	-9	-1	18	5.0
COc1ccc2[nH]c(=O)c(CN(C(=O)c3cccnc3)c3ccc(C)cc3)cc2c1
 : -46%	-6	0.2	2	-13	5.8	-1.4
COc1cc(CC(=O)OCc2ccccc2F)cc(OC)c1OC
 : ·	-1	3.1	3	-5	0.9	-0.5
O=c1[nH]c2cccnc2n1Cc1ccccc1
 : 0%	-10	7.8	-1	-17	0.4	-0.2
Cc1cc(-c2ccc(Br)cc2)n[nH]1
 : 9%	2	-3.4	-26	-27	-1.6	2.0
Cc1cccc(C)c1Nc1nc2ccccc2o1
 : -4%	-1	-0.5	4	0	-0.4	-1.7
CC(C)(C)NC(=O)NC12CC3CC(CC(C3)C1)C2
 : 4%	-3	-3.8	-19	·	3.3	2.6
COc1ccc(CC(=O)Oc2ccc(C(C)C)cc2)cc1S(=O)(=O)N1CCOCC1
 : -4%	11	0.0	-5	12	-3.7	-4.0
O=C(CSc1ccccn1)N1CCN(c2ccccc2)CC1
 : -1%	-3	-0.8	-8	71	7.7	1.6
CCOC(=O)CSc1nnc(CSc2nc3ccccc3c(=O)[nH]2)n1-c1ccccc1
 : 4%	-2	-1.7	-9	-15	0.8	0.0

Screens from PubChem.
